MLL AF4-AF9 inh: inhibitors of human MLL-AF4/AF9 interaction; P42568; AlphaScreen, biotin-AF4 peptide binding to FLAG-AF9; inhibition, % at 10 µM; 350,000 compounds, 0.47% hits; AID 651704;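 active = every replicate reaching a set inhibition limit, whatever the replicate mean, cut at about 25% in these data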;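 note: 0% = plate neutral control median and 100% = total signal loss; the record names both 10 and 1 µM as test concentration; the first replicate is given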
FGF22 binding: binders of recombinant human FGF22 by thermal shift. Q9HCT0. SYPRO orange fluorescence; percent of sucrose octasulfate shift, DMSO zero. calls only at 9.99 µM. 340,000 compounds, 1.5% hits;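 active = melting point raised past a set limit in the mean and every replicate; three in four hits are not shown here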
Target sequence (Q9HCT0 whole entry, looked up): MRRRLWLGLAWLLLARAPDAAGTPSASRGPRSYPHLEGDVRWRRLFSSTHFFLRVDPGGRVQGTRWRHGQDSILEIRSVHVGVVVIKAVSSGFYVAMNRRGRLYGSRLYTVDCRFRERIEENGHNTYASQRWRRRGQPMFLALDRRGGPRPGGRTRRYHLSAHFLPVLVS
rRNA inh HTS: inhibitors of bacterial rRNA selective over humanized ribosomes | E. coli WT GFP vs humanized-ribosome RFP mutants, fluorescence, 24 h; active compounds read low; DMSO median 0, no signal -100 | 350,000 compounds, 1.6% hits | GFP signal change (wild-type ribosome), % (test concentration not listed);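 active = significant combined selectivity score with lowered wild-type GFP, culture density cut under 30%, mutant RFP and density less affected; inactive = any of these conditions unmet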; note: one replicate is shown; some compounds called inactive have numbers as strong as hits
E coli growth: blocks Escherichia coli growth; OD600, 23 h; active compounds read low; OD600 absorbance (concentration not given with the values); 330,000 compounds, 0.21% hits;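 active = OD600 absorbance below the run mean of sample wells minus 3.6 SD, in any replicate, cut at about 0.56 in these data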;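 note: stock transfer was 300 nL into about 60 µL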
HNF4A DNA FP: change in binding of human HNF4 alpha to DNA. P41235. HNF4a-FITC DNA binding, fluorescence polarization, 1 h. activity change, % at 10 µM. 360,000 compounds, 0.3% hits. AID 1224865; in the data active = activity change above about 30%, passing the limit was not always enough;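 note: controls were the assay level and a saturating level of protein; the project sought stronger binding though the title names inhibitors; some compounds called inactive have numbers as strong as hits; positive values seem to mean higher polarization but the record does not say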
Target sequence (P41235 whole entry, looked up): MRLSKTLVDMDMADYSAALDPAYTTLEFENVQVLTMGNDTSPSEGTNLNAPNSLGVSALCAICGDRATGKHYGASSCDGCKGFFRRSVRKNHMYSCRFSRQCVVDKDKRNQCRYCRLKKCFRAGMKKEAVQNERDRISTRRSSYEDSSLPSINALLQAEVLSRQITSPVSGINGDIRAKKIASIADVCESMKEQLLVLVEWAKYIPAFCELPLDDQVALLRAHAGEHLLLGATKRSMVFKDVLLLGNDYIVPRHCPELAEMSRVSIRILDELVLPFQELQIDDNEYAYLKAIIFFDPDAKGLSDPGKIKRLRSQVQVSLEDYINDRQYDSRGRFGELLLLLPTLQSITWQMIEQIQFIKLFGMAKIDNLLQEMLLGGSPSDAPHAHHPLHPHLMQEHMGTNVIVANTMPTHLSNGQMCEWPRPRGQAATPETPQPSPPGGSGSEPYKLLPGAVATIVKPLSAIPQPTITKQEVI
ALR H2O2 inh: blocks human ALR sulfhydryl oxidase activity. P55789. purified ALR, DTT oxidation, H2O2 HRP-luminol luminescence. 290,000 compounds, 3.8% hits. inhibition, % (no concentration beside the values);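 active = mean and each replicate at 75% or more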;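 note: stock transfer was 7.5 nL into about 7.5 µL; 0% = neutral wells and 100% = wells with inactivated enzyme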
Target sequence (P55789 whole entry, looked up): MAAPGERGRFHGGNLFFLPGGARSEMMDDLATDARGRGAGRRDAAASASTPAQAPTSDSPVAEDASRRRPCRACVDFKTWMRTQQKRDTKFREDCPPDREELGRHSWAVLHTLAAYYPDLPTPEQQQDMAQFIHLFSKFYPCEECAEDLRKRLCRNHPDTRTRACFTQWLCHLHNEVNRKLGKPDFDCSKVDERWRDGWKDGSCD
Vif A3G: inhibitors of Vif binding to APOBEC3G peptide, primary screen, biochemical, TR-FRET, GST-Vif 1-94, biotin-A3G peptide, dose response retest (AID 1117319); 260,000 compounds, 0.57% hits; inhibition, %; hits with a dose series show IC50 in µM; TR-FRET GST-Vif / biotin-A3G peptide binding; higher % means a stronger effect; test concentration not given here; strong numbers were not always called active;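 active = above the screen mean plus three standard deviations and confirmed in dose response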;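 note: Vif residues 1-94 fused to GST binding biotinylated APOBEC3G peptide 110-148; 0% = full assay without inhibitor and 100% = GST in place of GST-Vif; retest series ran down from 100 µM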
rRNA inh HTS OD600: also measured in rRNA inh HTS; calls as there; OD600 change, %; measured here: OD600 growth;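 optical density of the mix in the first replicate; 0 = DMSO median and -100 = no signal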
rRNA inh HTS RFP: second read-out of rRNA inh HTS, no call of its own (marks repeat the call); RFP signal change, %; measured here: RFP humanized mutant strains;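 first replicate; 0 = DMSO median and -100 = no signal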
* hit, by the source's call; i = inactive; . = not tested or not shown; + = active, no number. These rows are one share of the data; rates above refer to the full screens.

Preview (15 entries):
cpd	SMILES	FGF22 binding	HNF4A DNA FP	ALR H2O2 inh	MLL AF4-AF9 inh	rRNA inh HTS RFP	rRNA inh HTS OD600	Vif A3G	rRNA inh HTS	E coli growth
1	O=C(NNC(=O)c1ccc(NC(=O)c2ccccc2)cc1)Nc1ccccc1	i	-5.2	.	-2.6	-0.7	37	-5%	32	0.66
2	Cc1ccccc1Cn1nc(C)c(NC(=O)C2c3ccccc3Oc3ccccc32)c1C	.	2.3	-9	.	.	.	.	.	0.65
3	CN(C)c1ccc(N=C/C=C2/N(C)c3ccccc3C2(C)C)cc1	i	29	.	48*	12	-6	2.2µM*	-11	0.62
4	C/C=C/c1cnc2c(c1)C(=O)N([C@H](C)CO)C[C@@H](C)[C@@H](CN(C)Cc1ccccc1)O2	i	.	.	-3.7	0.1	5	.	2	.
5	COc1ccc(-c2ccc3c(c2)[C@H]2[C@H](CCN2S(=O)(=O)c2ccc(OC)cc2)[C@H](CO)N3C)cc1	i	.	.	-0.2	-3.7	14	.	-3	.
6	Cc1ccccc1Oc1ccc2c(c1)[C@@H]1C[C@H](N(C)C(=O)c3ccco3)[C@H]([C@H](C)O)C(=O)N1CC2	i	1.3	.	5.3	-0.8	-36	-1%	-14	.
7	CCOC(=O)Cn1cnc2c(nnn2-c2ccc(OC)cc2)c1=O	.	-1.2	-2	.	.	.	-1%	.	0.77
8	CCCC[C@@H]1C[C@H]1[C@@H](NC(=O)c1ccco1)c1ccc(Cl)cc1	i	-0.2	.	0.3	15	-51	-8%	-35	.
9	COC(=O)C1OCOC2C(C(=O)OC)OCOC12 (configuration not stated)	i	1.8	.	1.4	-0.1	9	-7%	3	0.69
10	CCCCNCc1cccn1-c1ccccc1	.	1.0	-3	.	.	.	9%	.	0.65
11	CN(CCc1ccccc1)C(=O)c1cccc(NC(=O)Cc2cccc(NC(=O)C3CCCN(C(=O)C4CC4)C3)c2)c1 (configuration not stated)	i	0.8	.	-4.3	.	.	-6%	.	0.7
12	COc1ccc(NC(=O)N(C)C[C@@H]2Oc3ncc(C#CC(C)C)cc3C(=O)N([C@H](C)CO)C[C@H]2C)cc1	i	.	.	-7.7	-0.1	-3	.	2	.
13	COc1cccc(-c2ccc([C@H]3[C@H](C#N)N(C(=O)c4ccccn4)[C@H]3CO)cc2)c1	i	.	.	-1.3	4.5	-18	.	-7	.
14	O=S(=O)(NN=C1CCCCCCC1)c1ccccc1	i	1.0	.	-4.8	-1.6	5	2%	6	.
15	CC(C)COP(=O)(OCC(C)C)C(Nc1ccccc1)c1ccc(F)cc1 (configuration not stated)	i	1.1	1	4.3	-1.0	10	-1%	2	0.71

This part in full, repeating the preview:
cpd	SMILES	FGF22 binding	HNF4A DNA FP	ALR H2O2 inh	MLL AF4-AF9 inh	rRNA inh HTS RFP	rRNA inh HTS OD600	Vif A3G	rRNA inh HTS	E coli growth
1	O=C(NNC(=O)c1ccc(NC(=O)c2ccccc2)cc1)Nc1ccccc1	i	-5.2	.	-2.6	-0.7	37	-5%	32	0.66
2	Cc1ccccc1Cn1nc(C)c(NC(=O)C2c3ccccc3Oc3ccccc32)c1C	.	2.3	-9	.	.	.	.	.	0.65
3	CN(C)c1ccc(N=C/C=C2/N(C)c3ccccc3C2(C)C)cc1	i	29	.	48*	12	-6	2.2µM*	-11	0.62
4	C/C=C/c1cnc2c(c1)C(=O)N([C@H](C)CO)C[C@@H](C)[C@@H](CN(C)Cc1ccccc1)O2	i	.	.	-3.7	0.1	5	.	2	.
5	COc1ccc(-c2ccc3c(c2)[C@H]2[C@H](CCN2S(=O)(=O)c2ccc(OC)cc2)[C@H](CO)N3C)cc1	i	.	.	-0.2	-3.7	14	.	-3	.
6	Cc1ccccc1Oc1ccc2c(c1)[C@@H]1C[C@H](N(C)C(=O)c3ccco3)[C@H]([C@H](C)O)C(=O)N1CC2	i	1.3	.	5.3	-0.8	-36	-1%	-14	.
7	CCOC(=O)Cn1cnc2c(nnn2-c2ccc(OC)cc2)c1=O	.	-1.2	-2	.	.	.	-1%	.	0.77
8	CCCC[C@@H]1C[C@H]1[C@@H](NC(=O)c1ccco1)c1ccc(Cl)cc1	i	-0.2	.	0.3	15	-51	-8%	-35	.
9	COC(=O)C1OCOC2C(C(=O)OC)OCOC12 (configuration not stated)	i	1.8	.	1.4	-0.1	9	-7%	3	0.69
10	CCCCNCc1cccn1-c1ccccc1	.	1.0	-3	.	.	.	9%	.	0.65
11	CN(CCc1ccccc1)C(=O)c1cccc(NC(=O)Cc2cccc(NC(=O)C3CCCN(C(=O)C4CC4)C3)c2)c1 (configuration not stated)	i	0.8	.	-4.3	.	.	-6%	.	0.7
12	COc1ccc(NC(=O)N(C)C[C@@H]2Oc3ncc(C#CC(C)C)cc3C(=O)N([C@H](C)CO)C[C@H]2C)cc1	i	.	.	-7.7	-0.1	-3	.	2	.
13	COc1cccc(-c2ccc([C@H]3[C@H](C#N)N(C(=O)c4ccccn4)[C@H]3CO)cc2)c1	i	.	.	-1.3	4.5	-18	.	-7	.
14	O=S(=O)(NN=C1CCCCCCC1)c1ccccc1	i	1.0	.	-4.8	-1.6	5	2%	6	.
15	CC(C)COP(=O)(OCC(C)C)C(Nc1ccccc1)c1ccc(F)cc1 (configuration not stated)	i	1.1	1	4.3	-1.0	10	-1%	2	0.71
16	Cc1cccc2c(N=NC(=O)c3ccc(NS(=O)(=O)c4cccs4)cc3)c(O)[nH]c12	i	-38	10	0.0	-5.6	-2	.	-5	0.73
17	CCN(C(=O)CN1c2ccccc2CC1C)c1c(N)n(Cc2ccccc2)c(=O)[nH]c1=O (configuration not stated)	i	8.1	68	-0.2	4.4	12	.	27	0.67
18	CCOC(=O)N1CCN(C(=O)C2CCN(S(=O)(=O)N3CCC4(CC3)OCCO4)CC2)CC1	i	0.4	3	-3.2	7.6	17	0%	5	0.63
19	O=C(NNC(=O)C1C2C=CC(C2)C1C(=O)O)c1ccccc1O (configuration not stated)	i	2.2	-2	-2.5	-0.9	1	8%	3	.
20	CCCC(=O)Nc1ccc(Br)cn1	.	0.7	-3	.	.	.	65µM*	.	0.7
21	COC(=O)c1nnn(Cc2ccccc2)c1N	.	-1.7	-4	.	.	.	15%	.	0.67
22	COc1cc(NC(=O)Cn2cnc(S(=O)(=O)N3CCCCC3)c2)cc(OC)c1OC	i	1.1	2	0.7	-1.0	10	13%	3	0.69
23	CC(Sc1ncnc2c1cnn2-c1ccccc1)C(=O)Nc1ccc(N2CCOCC2)cc1 (configuration not stated)	i	1.7	-5	1.0	-1.8	9	-14%	7	0.71
24	O=C(COC(=O)Cc1ccccc1[N+](=O)[O-])NNC(=O)c1ccc([N+](=O)[O-])cc1	i	-0.7	-18	-1.8	0.9	-1	4%	-11	0.69
25	O=C(Cn1c2ccc(F)cc2c2nc3n(c(=O)c21)CCS3)NCC1CCCO1 (configuration not stated)	i	0.9	-5	-1.6	-1.8	13	.	-1	0.67
26	COc1cccc(CNC(=O)C[C@@H]2CC[C@@H](NC(=O)C3CCC3)[C@@H](CO)O2)c1	i	.	.	-0.5	-0.4	-1	.	-2	.
27	COc1ccc(CCNC(=O)CCCN2C(=O)C(c3ccccc3)Oc3cccnc32)cc1OC (configuration not stated)	i	3.8	-5	-11	-0.3	4	.	-1	0.65
28	O=C(COc1cc2oc(=O)c3c(c2cc1Cl)CCCC3)NCC1CCC(C(=O)O)CC1 (configuration not stated)	i	0.2	0	1.1	-3.5*	-17*	2%	-23*	0.68
29	O=S(=O)(c1ccccc1)c1nc(-c2ccc(F)cc2)oc1N1CCOCC1	i	1.6	2	-2.5	-2.8	6	.	7	0.66
30	CCCc1cc(=O)c2ccc(OCC(C)=O)cc2o1	i	2.5	-5	-3.7	-1.6	-6	.	-11	0.71
31	Cc1noc(NS(=O)(=O)c2ccc(NC(=O)/C=C/c3ccc(C(C)C)cc3)cc2)c1C	+	-6.5	14	3.6	-17	-76	-1%	-56	0.7
32	C[C@@H]1CN([C@H](C)CO)C(=O)c2cc(NC(=O)Nc3ccc4c(c3)OCO4)ccc2O[C@@H](C)CCCCO[C@@H]1CN(C)Cc1ccncc1	i	.	.	9.7	6.9	-6	.	-2	.
33	COc1ccc2[nH]c(C)c(C(=O)CN3CCc4cc(OC)c(OC)cc4C3)c2c1	.	0.6	-10	.	.	.	5%	.	.
34	O=C(CNC(c1ccccc1)c1ccccc1)Nc1ccccc1-c1ccccc1	i	3.4	.	-2.7	.	.	.	.	0.72
35	O=C(CC(=O)NN=C1CCCC1)NCCc1ccccc1	.	-0.5	3	.	.	.	4%	.	0.67
36	Cc1ccc(N(C)S(=O)(=O)c2ccc3c(c2)NC(=O)C(C)S3)cc1 (configuration not stated)	i	0.1	2	1.2	-5.3	-39	16%	-4	0.6
37	CCC(=O)Nc1ccc(-c2nc3ccccc3c(=O)o2)cc1	.	1.4	.	-3.1	2.5	13	.	8	0.7
38	COc1ccc2[nH]c3c(c2c1)CCN1C(=O)C(CC(=O)NCc2ccco2)C[C@H](C(=O)N(C(C)C)C(C)C)[C@@]31C (some centres not stated)	i	4.4	.	6.7	5.2	-4	.	3	0.71
39	O=C(Cn1[nH]c(=O)c2ccccc2c1=O)OCC(=O)c1ccccc1	i	2.0	-1	-7.3	-1.4	6	-13%	13	0.68
40	C=CCNC(=S)N/N=C(\C)c1ccc(OC)cc1	i	0.8	29	4.0	-0.1	8	-5%	12	.
41	O=C(NCc1ccccn1)c1ccc(Cl)c(S(=O)(=O)Nc2ccccc2C(=O)NCc2ccccn2)c1	i	4.9	-16	6.3	4.8	-4	15%	-5	0.7
42	CCc1cccc2c(C#N)cn(CC(=O)NCc3ccco3)c12	.	-2.6	-1	.	.	.	4%	.	0.73
43	O=C(c1sc2ccccc2c1Cl)N(Cc1ccco1)C1CCS(=O)(=O)C1 (configuration not stated)	.	0.9	4	.	.	.	3%	.	0.72
44	COc1ccccc1OCCn1cc(/C=N/n2cnnc2)c2ccccc21	.	2.4	2	.	.	.	-5%	.	.
45	COc1cccc(S(=O)(=O)Nc2ccc3c(c2)OC[C@H](C)NC[C@@H](C)[C@@H](OC)CN(C)C3=O)c1	i	.	.	-2.0	2.1	3	.	2	.
46	CC1c2ccccc2N(NC(=O)Cc2ccccc2)C1C (configuration not stated)	i	-0.4	29	-0.2	-1.4	-5	2%	-4	0.66

Single records, from the list above.
`COc1ccc(CCNC(=O)CCCN2C(=O)C(c3ccccc3)Oc3cccnc32)cc1OC` (configuration not stated) reads FGF22 binding = i; HNF4A DNA FP = 3.8; ALR H2O2 inh = -5; MLL AF4-AF9 inh = -11; rRNA inh HTS RFP = -0.3; rRNA inh HTS OD600 = 4; Vif A3G = .; rRNA inh HTS = -1; E coli growth = 0.65
`O=C(Cn1[nH]c(=O)c2ccccc2c1=O)OCC(=O)c1ccccc1` reads FGF22 binding = i; HNF4A DNA FP = 2.0; ALR H2O2 inh = -1; MLL AF4-AF9 inh = -7.3; rRNA inh HTS RFP = -1.4; rRNA inh HTS OD600 = 6; Vif A3G = -13%; rRNA inh HTS = 13; E coli growth = 0.68
